Mtb growth: M. tuberculosis H37Rv growth inhibitors, H37Rv strain (AID 1626); inhibition, % at 10 µM; hits with a dose series show IC50 in µM; M. tuberculosis H37Rv growth inhibition; higher % means a stronger effect; actives 0.95% (n = 220,000);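 active means confirmed in a dose series; inconclusive means inhibition above 80% but not taken into the dose series; inactive means below 80% or under 30% at every dose of the series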;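 further: bacteria incubated seven days before Alamar blue readout; 0% = bacteria only wells and 100% = bacteria with antibiotic wells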
Mtb bLac sens: beta-lactam sensitization of Mtb H37Rv | M. tuberculosis H37Rv growth with meropenem, percent inhibition; hits of this screen are not shown here | inhibition, % at 25 µM | actives 0.27% (n = 330,000);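 active means about 74% or more and at least 40 points above the plate without the antibiotic, then above 30% in a dose series; inconclusive means first-round hits that could not be retested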;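 further: growth measured after seven days incubation then overnight dye step; 0% = bacteria only wells and 100% = bacteria with antibiotic; twin plates without the antibiotic show which effects depend on it; some results filed as inactive read as strong as hits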
YopH PTP inh: YopH (Yersinia) phosphatase inhibition. fluorescence Ex485/Em525. inhibition, %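 (about 10 µM by stock and volumes)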. actives 0.16% (n = 140,000). AID 898;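 active means inhibition of 50% or more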;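 further: controls were vehicle for no effect and minimum signal wells for full effect; inactives centre near -20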
RecA splice inh: Mtb RecA intein splicing inhibition; P9WHJ3; cell-free RecA intein splicing, fluorescence; inhibition, %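 (about 9 µM by stock and volumes)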; actives 0.75% (n = 290,000); AID 2221; in the data active means inhibition above about 30%; inconclusive means no clear call, values can overlap the other calls;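 further: 0% = vehicle wells and 100% = reference inhibitor control wells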
Target sequence (P9WHJ3 whole entry, looked up, canonical isoform): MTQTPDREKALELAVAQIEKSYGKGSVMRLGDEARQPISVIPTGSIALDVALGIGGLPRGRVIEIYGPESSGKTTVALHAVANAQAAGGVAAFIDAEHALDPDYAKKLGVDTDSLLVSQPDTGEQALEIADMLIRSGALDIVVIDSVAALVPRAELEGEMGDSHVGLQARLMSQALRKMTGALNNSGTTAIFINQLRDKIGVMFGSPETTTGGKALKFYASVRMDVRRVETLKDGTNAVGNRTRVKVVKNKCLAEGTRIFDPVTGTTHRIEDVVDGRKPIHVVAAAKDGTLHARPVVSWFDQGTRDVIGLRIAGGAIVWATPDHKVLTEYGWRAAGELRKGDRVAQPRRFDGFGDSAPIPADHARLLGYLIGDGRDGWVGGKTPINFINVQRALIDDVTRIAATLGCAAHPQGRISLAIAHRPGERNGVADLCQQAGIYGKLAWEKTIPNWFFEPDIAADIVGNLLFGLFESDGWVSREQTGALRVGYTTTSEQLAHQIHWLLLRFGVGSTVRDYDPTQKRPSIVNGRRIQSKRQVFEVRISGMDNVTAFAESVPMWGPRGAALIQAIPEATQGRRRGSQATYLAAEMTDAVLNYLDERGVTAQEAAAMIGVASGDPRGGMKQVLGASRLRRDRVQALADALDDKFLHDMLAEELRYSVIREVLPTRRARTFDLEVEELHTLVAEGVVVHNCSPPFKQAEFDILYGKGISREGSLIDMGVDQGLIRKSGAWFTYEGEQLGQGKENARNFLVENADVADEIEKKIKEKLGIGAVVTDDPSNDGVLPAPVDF
Arbovirus anti: antivirals against arbovirus infection | arbovirus infection cell-based antiviral screen | inhibition, % at 10 µM | actives 0.37% (n = 200,000) | AID 1251;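 active means inhibition from about 30%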;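 further: bluetongue infection of BSR cells; cell survival read as ATP light after 72 h; 0% = infected wells without compound and 100% = uninfected wells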
Arbovirus anti repeat: also measured in Arbovirus anti; calls as there; inhibition, %; measured here: 10K subset replicate screen; many hits read low in the repeat;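 first of two repeat runs on a subset; 0% = infected and 100% = uninfected wells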
* = called active by the depositor; ? = inconclusive; · = not tested or not shown. This is a subset; count on the stated rates, not on these rows.

SMILES | Mtb growth | Mtb bLac sens | YopH PTP inh | RecA splice inh | Arbovirus anti | others
CCCC[N+](CC#CCO)(CC#Cc1ccccc1)CCCC | · | 2 | · | -0.1 | ·
CSc1nc(O)c(C(c2ccc(OC(C)C)cc2)c2c(O)nc(SC)[nH]c2=O)c(=O)[nH]1 | · | 43 | · | 2.1 | ·
Cc1cc(C)cc(N(CC(=O)NC2CC3CCC2C3)S(C)(=O)=O)c1 (stereo not given) | -9% | -1 | -44 | -2.0 | 0 | Arbovirus anti repeat=3
CCn1nc(NS(=O)(=O)c2ccccc2[N+](=O)[O-])c2cc3cccc(C)c3nc21 | · | 6 | · | -3.6 | ·
CCC(Sc1nc(N)cc(=O)[nH]1)C(=O)NC(C(=O)OC)c1ccccc1 (stereo not given) | -3% | -13 | 10 | -0.4 | 8
CC(=O)Nc1ccc(S(=O)(=O)NC(C)C(=O)NCCc2ccc(F)cc2)cc1 (stereo not given) | 2% | -6 | · | -4.9 | 4
COc1ccc2[nH]cc(CCNC(=O)CS(=O)(=O)Cc3ccccc3)c2c1 | · | 1 | · | -1.0 | ·
C=CCN(CC=C)C(=O)c1ccc(OC2CCN(C(C)=O)CC2)c(OC)c1 | · | 2 | · | 1.8 | ·
O=C(CN1C(=O)NC2(CCOc3ccccc32)C1=O)Nc1ccc(F)c(F)c1F (stereo not given) | -2% | -5 | · | 0.8 | 1
Cc1ccc(CCNC(=O)c2cc(-c3ccncc3)nc3ccccc23)cc1 | 9% | 1 | · | -4.4 | ·
CCCN(CC(=O)Nc1ccc(Cl)cc1Cl)Cc1cc(=O)n2ccsc2n1 | 3% | -17 | · | 3.4 | -5
O=C(CCSc1nnc(-c2ccco2)o1)Nc1ccccc1 | -7% | 55 | 7 | 0.7 | -5
Cc1cccn2cc(-c3ccc(F)cc3)cc12 | -1% | 2 | · | -0.6 | 3
COc1ccc(NC(=O)CSCC(=O)NC2(C)CCS(=O)(=O)C2)cc1 (stereo not given) | · | -5 | · | 0.4 | ·
COc1ccc(S(=O)(=O)c2c(O)c3ccc(C(=O)Nc4ccccc4Cl)cc3[nH]c2=O)cc1 | · | 7 | · | -2.3 | ·

The final five compounds of the part before lead into the next.
SMILES | Mtb growth | Mtb bLac sens | YopH PTP inh | RecA splice inh | Arbovirus anti | others
CCCN(CC(=O)Nc1ccc(Cl)cc1Cl)Cc1cc(=O)n2ccsc2n1 | 3% | -17 | · | 3.4 | -5
O=C(CCSc1nnc(-c2ccco2)o1)Nc1ccccc1 | -7% | 55 | 7 | 0.7 | -5
Cc1cccn2cc(-c3ccc(F)cc3)cc12 | -1% | 2 | · | -0.6 | 3
COc1ccc(NC(=O)CSCC(=O)NC2(C)CCS(=O)(=O)C2)cc1 (stereo not given) | · | -5 | · | 0.4 | ·
COc1ccc(S(=O)(=O)c2c(O)c3ccc(C(=O)Nc4ccccc4Cl)cc3[nH]c2=O)cc1 | · | 7 | · | -2.3 | ·
CC(C)(C)c1ccc(CCC2OCC(CN3CCOCC3)O2)cc1 (stereo not given) | -4% | -1 | · | 1.3 | ·
Cc1nn(Cc2ccccc2Cl)c(C)c1C(=O)NC1CCCc2ccccc21 (stereo not given) | 12% | -1 | -34 | 4.6 | 4
CCc1cccc(CC)c1NC(=O)C1CC(=O)N(c2ccc3c(c2)OCCO3)C1 (stereo not given) | -6% | -2 | -23 | -0.9 | 0
Cc1ccc(OCc2nc(C#N)c(N3CCN(Cc4ccccc4)CC3)o2)cc1 | -6% | -3 | -35 | -1.3 | 18
CCN(Cc1ccccc1)C(c1cc2ccc(C)cc2[nH]c1=O)c1nnnn1CCOC (stereo not given) | -5% | -6 | -5 | 3.4 | 2
COC(=O)c1cc(NCc2ccc3c(c2)OCO3)ccc1N1CCOCC1 | -4% | 25 | 2 | -4.8 | -8
O=C(CN1CCN(Cc2cccc(Cl)c2)C1=O)NCC1CCCO1 (stereo not given) | -7% | -1 | -46 | 1.1 | 3
COc1ccccc1N1CCN(C(=O)c2ccccc2N(C)S(=O)(=O)c2ccc(C)cc2)CC1 | · | -10 | · | 2.3 | ·
O=C1CN(C(=O)COC(=O)c2ccc[n+]([O-])c2)c2ccccc2N1 | 4% | -9 | · | 0.2 | 21
CCOC(=O)CCc1c(C)c2ccc(OCc3nn[nH]n3)c(C)c2oc1=O | -5% | -1 | -62 | -2.1 | 4
O=C(NCc1ccco1)/C(=C/c1ccc(Br)cc1)NC(=O)c1ccco1 | · | -5 | · | -0.4 | ·
Cc1ccc(S(=O)(=O)NCC(=O)Nc2ccc3c(c2)OCO3)cc1 | · | -4 | · | 8.6 | ·
CCOc1c(Br)cc(CNc2ccc(N3CCN(C(C)=O)CC3)cc2)cc1OC | -2% | 1 | · | -7.2 | ·
Cc1ccccc1NC(=O)c1cccc(OCc2c(C)noc2C)c1 | -2% | -16 | 4 | 3.3 | -5
NC(=O)c1c(NC(=O)c2cc3ccccc3o2)sc2c1CCC2 | -14% | -1 | -19 | -0.2 | 13
Cc1oc2c(CN3CCCC3)c(O)ccc2c(=O)c1-c1ccc(Cl)cc1 | · | 5 | -43 | -0.7 | 5
CCC(Oc1ccccc1)C(=O)N1CCN(c2ccccn2)CC1 (stereo not given) | 1% | 6 | -28 | -0.2 | 5
Cc1nn(CC(=O)c2ccc(Br)s2)c(C)c1[N+](=O)[O-] | 0% | 0 | · | 1.9 | ·
O=S(=O)(Cc1noc(-c2ccccc2Cl)n1)c1ccccn1 | -5% | -1 | · | -0.4 | ·
CCOP(=O)(OCC)C1(O)C(=O)Nc2ccccc21 (stereo not given) | -5% | 0 | -31 | 2.9 | 0
COc1ccccc1/C=C(\C#N)C(=O)Nc1ccc(S(N)(=O)=O)cc1 | -5% | -1 | · | -4.4 | 2
COc1cccc(C(=O)NCc2nnc(SCC(=O)Nc3nccs3)n2-c2ccccc2)c1 | -9% | -1 | 16 | -1.6 | 2
C#CCN1CC(C)/C(=N/O)CC1C (stereo not given) | -4% | -3 | -35 | 7.0 | 3
COc1ccc(C(=O)COC(=O)Cc2c[nH]c3ccccc23)c(OC)c1 | · | 1 | · | 6.1 | ·
O=C(O)/C=C/c1cnn(-c2ccccc2)c1 | -5% | · | · | 2.2 | 4
CCCOC(=O)CCCN1C(=O)/C(=C2\SC(=S)N(CCCC(=O)OCCC)C2=O)SC1=S | ? | 97 | · | -2.3 | ·
C=CCNCCCCOc1ccc(Br)cc1C | 4% | 9 | -5 | -0.1 | -35
Cc1cc(N/N=C/c2ccccc2Cl)nc(NCc2ccccc2)n1 | 57% | 99 | 0 | 3.9 | -23
COc1ccccc1CNC(=O)CCNS(=O)(=O)c1ccc2c(c1)oc(=O)n2C | · | -3 | · | -0.5 | ·
O=C(C1=NN(c2ccccc2)C2C(=O)N(c3ccccc3)C(=O)C12)c1ccccc1 (stereo not given) | -3% | -4 | -27 | -342 | -6

Sorted by molecular weight (largest number first): some entries from above
SMILES | Mtb growth | Mtb bLac sens | YopH PTP inh | RecA splice inh | Arbovirus anti | others
O=C(NCc1ccco1)/C(=C/c1ccc(Br)cc1)NC(=O)c1ccco1 | · | -5 | · | -0.4 | ·
Cc1oc2c(CN3CCCC3)c(O)ccc2c(=O)c1-c1ccc(Cl)cc1 | · | 5 | -43 | -0.7 | 5
Cc1cc(N/N=C/c2ccccc2Cl)nc(NCc2ccccc2)n1 | 57% | 99 | 0 | 3.9 | -23

Additional results
SMILES | Mtb growth | Mtb bLac sens | YopH PTP inh | RecA splice inh | Arbovirus anti | others
COc1cc(NC(=O)Cc2ccc(S(=O)(=O)N3CCOCC3)s2)c(OC)cc1Cl | · | -10 | · | 15 | ·
CCn1c(Cc2ccccc2)nnc1SCC(=O)Nc1ccc(OC)cc1 | -9% | 1 | -26 | 1.3 | -12
COc1ccc(OCC(=O)NC2CCCN(Cc3ccc(Cl)cc3)C2)cc1 (stereo not given) | · | -2 | · | 1.8 | ·
CC(C)(C)OC(=O)N/N=C\c1ccc(OC(=O)c2ccco2)cc1 | 3% | 26 | · | 43* | -2
CC(=O)Nc1ccc(-c2nc3ccccc3c(=O)o2)cc1 | · | 44 | · | -2.9 | ·
O=C(COc1cccc(NC(=O)c2cccc([N+](=O)[O-])c2)c1)c1ccc(Br)cc1 | -8% | 13 | -33 | -3.6 | -24
Cc1nnc(SCC(=O)NCc2ccccc2Cl)[nH]c1=O | 8% | 3 | · | 2.7 | 10
CN(c1ccccc1)S(=O)(=O)c1cccc(NC(=O)c2cncc(Br)c2)c1 | 10% | -6 | · | 5.2 | ·
Cc1ccc(C(=O)NC(C)c2ccccc2)o1 (stereo not given) | -8% | -11 | -5 | 1.5 | -2
Cc1ccc(C(=O)OCC(=O)NCc2cccs2)cc1S(=O)(=O)N1CCOCC1 | 2% | -8 | · | 3.9 | 6
O=Cc1cn(Cc2ccccc2F)c2ccccc12 | 5% | 2 | · | 2.8 | 10
COc1ccc(N2C=C3C(=O)C(C)(OC(=O)CCc4ccccc4)C(=O)C=C3C=C2c2ccc(C#N)cc2)cc1 (stereo not given) | -4% | 1 | · | -0.5 | ·
O=C1c2ccccc2C(=O)N1CC#CCN1CCN(C2CCCCC2)CC1 | -11% | 1 | -11 | 1.4 | -5
CCCCn1nnnc1NCc1cccnc1 | 7% | 0 | -24 | 1.6 | 3
O=C(NC(=S)Nc1cccc(Cl)c1Cl)C1CC1 | · | 15 | · | -0.6 | ·
COc1ccccc1C(=O)N1CCCC(c2nc(-c3cc(OC)c(OC)c(OC)c3)no2)C1 (stereo not given) | -8% | 5 | -106 | -0.1 | 6
Cc1nc(C(=O)N2CCOCC2)sc1C1(C)CC(c2ccccc2)=NO1 (stereo not given) | -6% | -8 | · | -2.1 | ·
COc1cc(OC)cc(C(=O)N(Cc2nc(-c3cccc(C)c3)no2)C(C)C)c1 | -6% | · | 29 | 1.5 | -16
COc1ccc(N/C(=C2\CCCC2=O)C2CCCCC2)cc1 | 65% | -3 | · | 6.2 | ·
CC[C@@H](C)[C@@H](C(=O)N1CCNCC1)n1cc(CCC(=O)O)nn1 | -7% | -2 | · | -0.8 | 8
COc1ccc(OC)c(-c2oc3ccccc3c(=O)c2O)c1 | -14% | 6 | -6 | -0.8 | -3
COc1cc(CNn2c(C)n[nH]c2=S)cc(Br)c1OCc1ccc(F)cc1 | 6% | 23 | -26 | 3.3 | -7
CN(C)CCCNc1c2c(nc3cc(-c4cccc(F)c4)nn13)CCC2 | -10% | -4 | · | -5.1 | -30
CN(C)CCCN(C(=O)COc1ccccc1)c1nc2cc3c(cc2s1)OCO3 | · | -1 | · | -0.7 | ·
CC(=O)Nc1ccc(NS(=O)(=O)c2c(Cl)cccc2Cl)cc1 | 1% | -2 | · | 4.6 | ·
Brc1ccccc1-c1nnc(COc2cccc3cccnc23)o1 | -5% | -12 | -12 | 3.1 | 2
COc1cc(CN(C)CCc2ccccn2)cc(OC)c1OC | -5% | 2 | -36 | 0.9 | 2
O=[N+]([O-])c1ccc(N2CCNCC2)c(S(=O)(=O)N2CCOCC2)c1 | 1% | -6 | -27 | -4.2 | 4
Cc1cccc2cc(C3CC(c4ccco4)=NN3C(=O)CCC(=O)O)c(Cl)nc12 (stereo not given) | -1% | 3 | -30 | 0.6 | 11
Cc1nc(C)c(C(=O)C2=C(O)C(=O)N(CCN3CCOCC3)C2c2cccnc2)s1 (stereo not given) | -20% | -5 | -3 | 1.2 | 4
Cc1cc(C)n(-c2cc(=O)n(C)c(=O)n2C)n1 | 3% | -4 | -28 | -0.4 | 4 | Arbovirus anti repeat=0
O=C1/C(=C/c2ccc(N3CCCC3)cc2)NC(=S)N1C1CC1 | 6% | 8 | -20 | 3.0 | 2
O=C(NCc1ccccc1)C1=C[C@@H](c2ccc(C(F)(F)F)cc2)C[C@@H](OCc2ccc(CO)cc2)O1 | · | 8 | · | 12 | -17
S=C(NCCc1ccccn1)NC1CCCCC1 | -1% | 18 | -15 | -1.4 | 9
CC(C)C(C)NC(=O)COc1ccc([N+](=O)[O-])cc1Cl (stereo not given) | 6% | -1 | -28 | 1.0 | -2
COc1ccccc1NC(=O)CSc1nnc(C2CCCCC2)n1-c1ccccc1 | 3% | 0 | · | 5.4 | ·
CC(C)(CNC(=O)Cc1ccc(NS(=O)(=O)c2cccc(C(F)(F)F)c2)cc1)N1CCOCC1 | · | -7 | · | -1.1 | ·
COCCN(C(=O)CCC(=O)Nc1cc(C)on1)C(C(=O)NC1CCCC1)c1ccccc1F (stereo not given) | · | -3 | · | 1.2 | ·
Cc1cc(OCc2cc(C(=O)N(C)Cc3ccccn3)no2)cc(C)c1Cl | · | 57 | · | 12 | ·
CCC(C)(C)n1nnnc1C(c1ccc2ncccc2c1)N1CCN2CCCC2C1 (stereo not given) | -6% | 0 | -41 | -0.9 | 4
CC(=O)O[C@H](CC(=O)O)C[N+](C)(C)C | · | 3 | · | 3.4 | ·

Screens as filed in PubChem.
